# Bioassay records deposited in PubChem BioAssay by several laboratories.
# B2AR ag: agonists of human beta-2 adrenergic receptor inducing internalization; P07550; Am2.2-beta2AR cells, FAP receptor internalization, flow cytometry; reference of the scale not given here; response, % (test concentration not listed); actives 0.43% (n = 340,000); AID 504454;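 active means response above a set limit, near 3 SD of response in nonfluorescent compounds, cut at about 42% in these data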;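 further: stock transfer was 100 nL into about 11 µL; a reference agonist was the positive control; negative values mostly stem from fluorescent compounds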
# ALR inh: inhibitors of human sulfhydryl oxidase ALR. P55789. purified ALR, DTT oxidation, H2O2 HRP-luminol luminescence. inhibition, % (concentration not given with the values). actives 3.8% (n = 290,000). AID 485317;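 active means mean and each replicate at 75% or more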;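 further: stock transfer was 7.5 nL into about 7.5 µL; 0% = neutral wells and 100% = wells with inactivated enzyme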
# LANA-H2B inh: blocks KSHV LANA binding to histone H2A/H2B. Q9QR71. cell-free LANA-H2A/H2B peptide, fluorescence polarization. inhibition, % (no concentration beside the values). actives 0.6% (n = 320,000); in the data active means inhibition mostly above about 10%, no sharp cut-off; inactive means mostly below about 6.7%;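 further: stock transfer was 7.5 nL into about 10 µL; 0% = median of vehicle wells and 100% = median of positive control wells; one replicate is shown; the record names a cut of 25% in any replicate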
# Target sequence (Q9QR71 whole entry, looked up): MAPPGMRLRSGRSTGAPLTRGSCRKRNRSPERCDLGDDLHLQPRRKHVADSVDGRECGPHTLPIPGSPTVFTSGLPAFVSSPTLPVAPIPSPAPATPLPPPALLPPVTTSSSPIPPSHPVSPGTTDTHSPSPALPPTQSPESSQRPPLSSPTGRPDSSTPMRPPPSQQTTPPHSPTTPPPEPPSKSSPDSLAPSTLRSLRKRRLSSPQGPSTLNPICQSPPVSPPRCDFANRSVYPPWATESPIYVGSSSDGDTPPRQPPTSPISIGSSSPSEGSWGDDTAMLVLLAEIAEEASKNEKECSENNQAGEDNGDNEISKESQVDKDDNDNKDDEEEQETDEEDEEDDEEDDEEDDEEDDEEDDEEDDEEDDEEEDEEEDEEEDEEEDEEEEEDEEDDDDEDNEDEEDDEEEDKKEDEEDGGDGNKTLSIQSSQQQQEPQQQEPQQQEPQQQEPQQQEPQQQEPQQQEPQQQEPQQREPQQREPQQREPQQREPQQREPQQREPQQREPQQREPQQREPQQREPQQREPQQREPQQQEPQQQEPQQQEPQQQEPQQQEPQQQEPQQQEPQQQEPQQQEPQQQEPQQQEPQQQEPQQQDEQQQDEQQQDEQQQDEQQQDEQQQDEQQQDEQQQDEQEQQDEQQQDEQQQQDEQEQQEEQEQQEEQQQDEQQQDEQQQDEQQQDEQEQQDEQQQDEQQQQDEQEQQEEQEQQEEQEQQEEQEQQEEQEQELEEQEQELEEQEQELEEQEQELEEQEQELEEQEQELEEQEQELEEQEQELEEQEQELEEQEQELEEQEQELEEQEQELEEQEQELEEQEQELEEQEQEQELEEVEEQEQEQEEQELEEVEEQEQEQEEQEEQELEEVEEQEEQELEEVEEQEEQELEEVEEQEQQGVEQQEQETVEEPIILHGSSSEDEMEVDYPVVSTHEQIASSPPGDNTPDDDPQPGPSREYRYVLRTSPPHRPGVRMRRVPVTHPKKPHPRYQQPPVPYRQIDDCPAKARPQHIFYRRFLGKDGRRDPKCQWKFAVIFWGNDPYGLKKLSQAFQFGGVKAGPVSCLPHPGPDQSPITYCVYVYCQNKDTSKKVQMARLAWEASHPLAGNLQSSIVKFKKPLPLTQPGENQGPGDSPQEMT
# E coli growth: blocks Escherichia coli growth | OD600, 23 h; active compounds read low | OD600 absorbance (concentration not given with the values) | actives 0.21% (n = 330,000);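 active means OD600 absorbance below the run mean of sample wells minus 3.6 SD, in any replicate, cut at about 0.56 in these data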;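 further: stock transfer was 300 nL into about 60 µL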
# HNF4A DNA FP: change in binding of human HNF4 alpha to DNA. HNF4a-FITC DNA binding, fluorescence polarization, 1 h. activity change, % at 10 µM. actives 0.3% (n = 360,000). AID 1224865; in the data active means activity change above about 30%, passing the limit was not always enough;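 further: controls were the assay level and a saturating level of protein; the project sought stronger binding though the title names inhibitors; some compounds called inactive have numbers as strong as hits; positive values seem to mean higher polarization but the record does not say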
# UCH37 inh: inhibitors of human deubiquitinating enzyme UCH37. Q9Y5K5. purified proteasome/UCH37, Ub-AMC cleavage fluorescence. inhibition, % (concentration not given with the values). actives 0.33% (n = 330,000). AID 588478;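 active means mean of two replicates above 20%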;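 further: 0% = compound-free wells with enzyme and 100% = wells lacking proteasome; stock transfer was 100 nL into about 20 µL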
#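 Material: Human UCH37 enzyme supplied as purified proteasome complex | Schedule: 30 min compound-proteasome preincubation then 25 min substrate reaction, room temperature | Detection: AMC fluorescence from Ub-AMC cleavage, excitation 355 nm, emission 460 nm | Benchmarks: Wells without proteasome as full block, compound-free enzyme plus substrate as uninhibited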
# FGF22 binding: FGF22 (human) thermal shift binding; Q9HCT0; recombinant FGF22 thermal shift, SYPRO orange fluorescence; percent of sucrose octasulfate shift, DMSO zero; calls only at 9.99 µM; actives 1.5% (n = 340,000);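 active means melting point raised past a set limit in the mean and every replicate; three in four hits are not shown here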
# * marks the source's active call; other numbers are inactive results; i = inactive; . = no result given; & = joins results of further samples.
B2AR ag	ALR inh	LANA-H2B inh	E coli growth	HNF4A DNA FP	UCH37 inh	FGF22 binding	structure
-0.1	.	.	0.64	1.2	2.1	.	Cc1cc(C)cc(NC(=O)c2cc(C)nn2C)c1
-1.6	10.3	5.5	0.722	6.0	0.5	i	O=C(CSc1nc(Cc2ccccc2)nc2ccccc12)Nc1nc2c(s1)CCCC2
0.3	-6.1	-1.5	.	-1.8	.	i	COc1cccc(/C=N/Nc2ncc(C)c(=O)[nH]2)c1OC
1.0	-30.0	1.2	0.702	-1.2	-0.5	i	CC(C)N(Cc1nc(-c2ccccc2)no1)C(=O)c1ccc([N+](=O)[O-])cc1
6.2	1.8	2.5	0.717	-1.4	0.1	i	CC(=O)Nc1ccc(NC(=O)Cn2c(=O)n(-c3ccc(C)cc3)c(=O)c3oc4ccccc4c32)cc1
-4.7	15.6	-0.5	0.684	5.0	4.2	i	CCN(CC)CCNC(=O)c1cc(Nc2ccc(OC)c(OC)c2)nc2ccccc12
6.5	-4.3	0.5	.	1.9	.	i	CCC(C(=O)N/N=C(\C)c1cccnc1)c1ccccc1 (centres undefined)
-8.9	-16.9	-4.8	0.68	-0.8	3.9	.	O=C(Nc1nccs1)c1ccc(COc2ccc(F)cc2)o1
-5.2	37.3	14.9	0.632	0.9	7.2	i	Cc1cc(-n2nc3ccccc3n2)c(O)c([N+](=O)[O-])c1
0.7	29.5	1.1	0.709	-5.3	2.8	.	Cn1c(CCNC(=O)c2cccs2)n[nH]c1=S
-6.7	-2.4	-2.6	.	0.3	.	.	CNC(=O)/C(C#N)=c1\s/c(=C/C(=O)OC)c(=O)n1-c1ccccc1
-0.5	-9.1	2.6	0.688	3.0	2.8	i	CC(=O)c1cc(CN2CCN(C3CCN(C(C)C)CC3)C(CCO)C2)cs1 (centres undefined)
11.7	2.8	-2.8	0.738	-2.5	-2.3	.	CCOc1cc(C(=S)N2CCOCC2)ccc1OS(=O)(=O)c1ccccc1
3.4	-3.2	1.5	0.755	-1.8	4.5	i	Cc1cc(C(=O)CN2C(=O)C(=O)N(Cc3ccccc3)C2=O)c(C)n1-c1ccccc1F
1.4	0.0	1.1	0.682	2.1	0.4	i	CCn1c(COc2c(C)cccc2C)nnc1SCc1nc2ccccc2c(=O)[nH]1
-3.4	.	3.7	0.701	2.1	-2.1	i	Cc1nc(C(=O)Nc2ccccc2)sc1C1(C)CC(c2cccc([N+](=O)[O-])c2)=NO1 (centres undefined)
-9.5	-13.6	-1.7	0.623	5.6	0.7	i	CCC(=O)c1ccc(OCC(=O)OCC(=O)N2c3ccccc3CC2C)cc1 (centres undefined)
11.3	-0.6	-2.2	0.668	1.1	0.1	i	O=C(Nc1ccc(F)cc1)N1CCC(c2nc3c(nnn3Cc3ccccc3Cl)c(=O)[nH]2)CC1
31.3	-3.7	-7.4	0.662	5.4	1.6	i	Cc1ccc2nc(N(CCCN(C)C)C(=O)COc3ccc(Cl)cc3)sc2c1
-6.7	5.4	-2.6	0.65	2.1	0.1	.	COc1ccc(Cn2ccnc2)cc1Br
-3.1	.	-3.4	0.686	14.7	0.0	i	OC1(c2nc3ccccc3[nH]2)CCCCC1
-11.1	-8.5	-4.3	0.673	0.4	0.7	.	Cc1ccc(C)c(N2CCN(C(=O)c3ccc(N4CCCC4=O)cc3)CC2)c1
0.2	-5.0	2.2	0.683	1.4	0.6	i	COc1ccc(C(C(=O)NC(C)(C)C)N(C(=O)Cn2nnc3ccccc32)c2ccc(C(C)=O)cc2)cc1O (centres undefined)
7.1	6.6	-1.2	0.777	7.7	0.6	i	O=C(c1cc(-c2ccco2)on1)N1CCN(c2ccccc2)CC1
18.2	.	.	0.694	1.6	4.6	i	Cc1ccc(S(=O)(=O)N2CCOCC2)cc1NC(=O)COC(=O)c1cnc(Cl)c(Cl)c1
-23.1	4.1	-4.1	0.705	2.7	2.6	.	Clc1ccc(CSc2nnc(-c3ccccn3)n2Cc2ccco2)c(Cl)c1
-3.5	20.3	-0.1	0.659	0.6	1.2	.	Cn1cccc1Cc1nnc(SCC(=O)N2CCN(c3ccccc3)CC2)n1-c1ccc(F)cc1
-3.0	-13.5	4.5	0.704	2.0	0.3	i	CCCN(C(=O)Cc1csc(-c2ccccc2)n1)C1CCS(=O)(=O)C1 (centres undefined)
-0.2	33.5	-3.8	0.713	-3.0	-3.0	.	C=CCNC(=S)NNC(=O)c1ccc(OCCC)cc1
-0.5	-9.8	-0.1	0.694	-1.1	2.7	i	CCC(C)NCCCOc1ccc(C)cc1OC (centres undefined)
6.6	-6.1	-3.2	0.676	-2.4	3.7	.	CCc1nnc(NC(=O)CSc2nnc(-c3ccccc3OC)n2-c2ccccc2)s1
3.3	-13.3	-0.6	0.684	1.7	0.9	i	COCCNC(=O)c1cc(-c2ccccc2)n(Cc2cc(C)no2)n1
5.4	-1.7	1.0	0.686	0.3	5.0	i	COc1ccc(NC(=O)CN2CCc3ccccc3C2)c(OC)c1
7.8	-3.3	-1.4	0.686	-1.0	-23.0	i	COc1ccc(NC(=O)c2cc(-c3ccc(C)cc3)on2)cc1OC
0.7	-3.0	-2.2	0.684	-5.6	1.5	i	C=CCNC(=O)N[C@@H](Cc1ccccc1)C(=O)OC
-7.6	0.6	4.7	0.665	3.7	-247.3	i	CNc1ccccc1C(=O)OC(C)C(=O)Nc1ccc(Cl)cn1 (centres undefined)
-4.0	91.0*	1.4	0.698	0.9	1.3	i	COC(=O)NCC(c1ccc2c(c1)OCO2)N1CCN(c2ccc(OC)cc2)CC1 (centres undefined)
5.3	-9.7	3.4	0.699	1.6	0.3	i	COc1ccccc1-n1c(C)nc2cc(C(=O)O)ccc21
1.3	13.3	-3.9	0.544	-12.5	-7.4	i	Nc1nnc(-c2ccc(Cl)c(Cl)c2)s1
1.4	0.6	2.6	0.673	-1.8	-0.5	i	CN(C(=O)Cn1c(=O)oc2ccccc21)C1CCCCC1
-7.2	-5.4	-3.0	0.699	1.8	0.4	i	Cc1cc(NC(=O)CSC2=NS(=O)(=O)c3ccccc3N2)no1
-9.7	10.5	-0.3	0.668	-5.1	3.4	.	CCOC(=O)c1ccc(-n2ccnc2)c(NC(=O)c2ccc(Cl)cc2)c1
5.5	-11.4	-1.0	0.715	-1.8	1.4	.	Cn1c(=O)n(CC(=O)NCc2cccnc2)c2ccccc21
-0.1	.	-4.2	0.786	-0.9	2.4	.	CCOc1ccc(C)cc1S(=O)(=O)n1ccnc1
-23.9	.	.	0.689	2.5	i	i	COc1cccc(Oc2c(C)oc3c(CN4CCOCC4)c(O)ccc3c2=O)c1
0.6	97.9*	-1.0	0.694	2.7	2.8	i	O=C(CSc1c2c(nc3ccccc13)CCC2)N1CCCC1
-1.0	0.6	0.4	0.781	-6.0	-8.7	.	CCc1ccc2[nH]c(=O)c(CN(Cc3ccco3)S(=O)(=O)c3ccc4c(c3)OCCO4)cc2c1
-1.0	-11.8	2.2	0.685	1.9	-0.4	.	COc1ccc(CCNc2ncnc3[nH]ncc23)cc1OC

# Reformatted bar-delimited: four of the compounds above.
SMILES | B2AR ag | ALR inh | LANA-H2B inh | E coli growth | HNF4A DNA FP | UCH37 inh | FGF22 binding
CCOc1ccc(C)cc1S(=O)(=O)n1ccnc1 | -0.1 | . | -4.2 | 0.786 | -0.9 | 2.4 | .
COc1cccc(Oc2c(C)oc3c(CN4CCOCC4)c(O)ccc3c2=O)c1 | -23.9 | . | . | 0.689 | 2.5 | i | i
O=C(CSc1c2c(nc3ccccc13)CCC2)N1CCCC1 | 0.6 | 97.9* | -1.0 | 0.694 | 2.7 | 2.8 | i
CCc1ccc2[nH]c(=O)c(CN(Cc3ccco3)S(=O)(=O)c3ccc4c(c3)OCCO4)cc2c1 | -1.0 | 0.6 | 0.4 | 0.781 | -6.0 | -8.7 | .

# The results go on.
B2AR ag	ALR inh	LANA-H2B inh	E coli growth	HNF4A DNA FP	UCH37 inh	FGF22 binding	structure
12.7	.	2.5	0.689	-2.9	3.6	.	O=C(NC1CCCCC1)N1CCSC1=Nc1ccccc1
-2.2	-37.3	6.3	0.676	0.1	3.7	i	O=[N+]([O-])c1ccc(-n2cnc3ccccc32)c([N+](=O)[O-])c1
1.0	0.4	3.8	0.775	-2.4	-3.5	.	Cc1ccc(NC2=Nc3ccccc3CS2)cc1
5.1	6.4	4.6	0.713	0.2	-1.9	i	Cc1cc(C(=O)NC2CC(C)(C)Cc3c2cnn3-c2ccccc2C)c(C)o1 (centres undefined)
28.0	-4.7	4.0	0.687	-0.9	-19.0	i	CCn1cc(C(C)NC(=O)Nc2ccccc2C(=O)OC)c(C)n1 (centres undefined)
0.5	-3.0	4.5	0.667	1.3	0.4	i	Cc1cnccc1CN(C)C(=O)CC1C(=O)NCCN1CC1CCCCC1 (centres undefined)
4.4	-16.8	-1.2	0.668	-2.9	2.3	i	CCOC(=O)C1CCN(C(=O)COc2ccc3c(c2)OCO3)CC1
-4.5	0.1	-0.4	0.715	3.4	1.2	i	CCOC(=O)C1CCCN(C(=O)COc2ccc(N(C)S(=O)(=O)c3ccc(C)cc3)cc2)C1 (centres undefined)
0.4	-5.9	0.7	0.707	-2.9	2.2	.	Cc1cccnc1NCC(O)COc1ccccc1 (centres undefined)
-3.6	3.8	1.4	0.738	-1.5	6.4	.	COc1ccc(C2/C(=C(\O)c3ccc4c(c3)OCCO4)C(=O)C(=O)N2CCCN(C)C)c(OC)c1 (centres undefined)
-1.9	46.5	-3.4	0.669	-3.6	5.5	.	COc1ccccc1C(=O)NNC(=S)NC(=O)c1sc2ccccc2c1Cl
10.8	-2.7	-6.7	0.71	2.4	2.6	i	CCOc1cc(N2CCOCC2)c(OCC)cc1NC(=O)c1ccc2ccccc2n1
-10.6	-2.9	0.4	0.642	-1.8	3.4	i	C/[N+]([O-])=C/c1c(OCc2ccccc2)ccc2ccccc12
-6.1	6.3	-2.3	0.732	1.5	5.4	i	COc1ccc(O)c(C(=O)c2cnn(-c3ccccn3)c2)c1
0.6	-1.9	-1.1	0.734	3.3	5.2	.	O=C(c1ccncc1)N1CCN(C(=O)c2cccs2)CC1
5.5	-1.5	-3.8	0.677	-0.7	2.3	i	CCCCCCCCCCOC(=O)NC1CCS(=O)(=O)C1 (centres undefined)
3.7	.	-1.3	0.716	-1.2	2.9	.	COC(=O)C1CCN(C(=O)CCCOc2ccccc2)CC1
0.4	-4.1	2.9	.	-0.6	.	i	CCN1CCN(S(=O)(=O)c2ccc(OC)c3ccccc23)CC1
-9.4	-8.6	4.6	0.663	0.3	-0.1	.	CCn1c(SCC(=O)Nc2ccc(OC)cc2)nnc1-c1ccco1
-4.5	-13.8	2.3	0.66	0.4	6.1	.	Cc1csc(NC(=O)CCN2C(=O)c3ccccc3S2(=O)=O)n1
6.1	-3.2	-0.2	0.663	-2.8	4.6	i	CC(C)CC(COCc1cccc(C(F)(F)F)c1)N1CCN(C(=O)c2cccc(C(F)(F)F)c2)CCC1=O (centres undefined)
-5.7	-3.7	-0.3	.	-3.6	.	i	Cc1ccc(SCc2c(C(=O)N/N=C/C3CC=CCC3)nnn2-c2nonc2N)cc1 (centres undefined)
8.9	3.3	8.4	.	0.3&2.4	.	i	CCCCCCSc1cccc(-c2nc3ccccn3c2NCc2ccccc2)c1
-4.9	0.9	-0.9	0.658	6.5	3.9	i	CCOc1ncccc1C(=O)N1CCN(S(=O)(=O)c2cccs2)CC1
13.0	-6.1	-3.0	.	1.2	.	i	Cc1oncc1C(=O)Nc1cccc(C#N)c1
10.6	-1.5	2.8	0.738	-0.2	2.7	i	CCCN(C(=O)CCNC(=O)c1ccc(Cl)cc1)c1c(N)n(Cc2ccccc2)c(=O)[nH]c1=O
23.4	-2.6	-1.2	0.652	3.2	1.5	i	CC(C)(C)NC(=O)C(c1ccccn1)N(C(=O)C1CSC(=O)C1)c1ccccc1F (centres undefined)
76.0*	4.0	-3.6	0.613	4.6	4.3	.	CC(=O)n1cc(C(C[N+](=O)[O-])SCCN)c2ccccc21 (centres undefined)
6.7	-0.7	-0.6	0.637	5.0	4.0	i	O=C(Cn1nc(C(=O)O)c2ccccc2c1=O)c1c[nH]c2ccccc12
16.9	-7.4	-4.1	0.74	0.7	0.8	.	O=C(NCc1cccs1)c1cccnc1C(=O)O

# Some of the compounds tested, so the mix of outcomes need not match the whole.
